# From PubChem BioAssay
# IEC-6 cytotox: cytotoxicity in IEC-6 intestinal epithelial cells, primary screen, cytotoxicity control for KLF5 inhibitor project, cell-based, luminescence | IEC-6 cytotoxicity, luminescence viability | inhibition, % at 5 µM | 290,000 tested, 0.78% active | AID 1825, 2009; in the data active means inhibition above about 22%;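 further: 0% = plate median of test compound wells and 100% = cytotoxic reference compound wells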
# KLF5 inhibitor: KLF5 expression inhibitors, primary screen, DLD-1 cells, luminescence; DLD-1 KLF5 promoter-luciferase reporter; inhibition, % at 5 µM; 290,000 tested, 0.23% active;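 active means inhibition above a per-plate limit of that plate's mean compound inhibition plus 3 SD, cut at about 60% in these data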;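 further: 0% = DMSO wells and 100% = LY294002 at 200 µM; higher means less KLF5 promoter-driven luciferase light; inactives centre near -14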
# Platelet DG rel: inhibitors of platelet dense granule secretion, primary screen, cell-based, MLPCN, human platelets | human platelet-rich plasma, SFLLRN dense granule ATP release, luminescence | 300,000 tested, 0.22% active | inhibition, %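 (compounds screened at 7.5 µM in platelet-rich plasma)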 | AID 1663, 2009;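 active means mean replicate score, as percent of positive control, at or above 50; inconclusive means mean below 50 but at least one replicate at or above 50; inactive means mean and every replicate below 50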
# HSP90 refold inh: HSP90 inhibitors, primary screen, cell lysate, luminescence. AID 1789, 2009. Heat shock protein HSP 90 (rabbit reticulocyte lysate; luciferase refolding). inhibition, % at 5.6 µM. 290,000 tested, 0.91% active. Rabbit reticulocyte lysate, luciferase refolding luminescence, 3 h;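 active means inhibition above the screen-wide mean plus 3 SD, computed separately per campaign, cut at about 16% in these data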;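 further: 0% = DMSO wells and 100% = 60 µM geldanamycin wells; inhibitors lower the luminescence because luciferase stays unfolded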
# AI-2 QS modul: Vibrio harveyi AI-2 quorum sensing modulators, primary screen, JMH597 strain, luminescence/OD600 ratio; Vibrio harveyi JMH597 AI-2 luminescence/OD600 ratio, 9 h; hits give low values; strain lacks LuxN and CqsS sensors; 0 = neutral-control median; activity change, % at 7.5 µM; 300,000 tested, 0.4% active; in the data active means activity change below about -75%, passing the limit was not always enough; inconclusive means no clear call, values can overlap the other calls;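 further: luminescence divided by OD600 gain over 9 h not by final OD600 alone; inactives centre near 13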
# aSyn 5UTR inh: MLPCN primary screen, SNCA 5' untranslated region | inhibition, % (tested at 7.5 µM) | alpha-synuclein 5'UTR reporter, inhibitor activity | 300,000 tested, 0.82% active; in the data active means inhibition above about 60%; inconclusive means no clear call, values can overlap the other calls;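 further: H4 neuroglioblastoma cells stably carrying SNCA 5'UTR luciferase fusion; 0% = DMSO wells and 100% = positive control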
# SKKanGAS inh: S. pyogenes SKKanGAS growth inhibitors in kanamycin, primary screen, streptokinase expression inhibitor project, SKKanGAS strain, BacTiter-Glo luminescence. AID 1662, 2009. 300,000 tested, 1.3% active. 6 h. inhibition, % at 7.5 µM;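 active means mean replicate score, as percent of positive control median, at least 50; inconclusive means mean below 50 but one replicate at or above 50; inactive means mean and every replicate below 50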;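 further: strain carries kanamycin resistance gene driven by streptokinase promoter and grows in 40 µg/ml kanamycin; loss of luminescence reflects streptokinase promoter inhibition or plain growth inhibition; 0% = median of DMSO wells and 100% = positive control at its reference dose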
# HSF1 inhib: HSF1 inhibitors in luciferase reporter cells, primary screen, cell-based, NIH3T3, luminescence. NIH3T3-HGL HSE-luciferase, MG132-induced, luminescence 8 h; hits give low values. activity change, negative = inhibition, % at 7.5 µM (by protocol). 300,000 tested, 0.77% active. AID 2098, 2009;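 active means more than half of replicate wells show activity change below -50%, luminescence cut by over half; inconclusive means some wells, but at most half, below -50%; inactive means no replicate well below -50%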;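 further: luciferase reports HSF-1 transcriptional activity via heat shock element; 0% = median of DMSO wells and -100% = zero luminescence signal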
# HSF1 activator: HSF-1 activators, primary screen, NIH3T3-HGL cells, MG132 stress, luminescence, single point. 300,000 tested, 1.7% active. AID 504408, 2011. NIH3T3-HGL HSF-1 luciferase reporter, 8 h; 100% = twice DMSO control signal. activation, % at 9 µM;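 active means mean replicate activation of at least 50% with a set share of replicates each reaching 50%; inconclusive means only one of those two conditions met; inactive means mean below 50% and too few replicates reaching it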;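 further: 0% = median of the neutral control wells and 100% = twice that signal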
# Starred values were filed as active, the others as inactive; ? = inconclusive; / = not tested or not shown.
SMILES,IEC-6 cytotox,KLF5 inhibitor,Platelet DG rel,HSP90 refold inh,AI-2 QS modul,aSyn 5UTR inh,SKKanGAS inh,HSF1 inhib,HSF1 activator
O=c1[nH]c(=O)n(CCc2ccccc2)c(O)c1C=NCCN1CCNCC1,0,-21,-3,-2,42,1,-2,-3,2
COc1ccccc1N1CCNCC1,/,/,-6,/,-2,-44,0,-5,-1
C[N+](C)(C)CC#CCOC(=O)Nc1cccc(Cl)c1,/,/,-2,/,1,2,-4,2,-13
C[C@@]12N[C@@H](Cc3ccccc31)c1ccccc12,/,/,8,/,1,6,-1,-8,1
C=CCOC(=O)C1=C(C)OC(N)=C(C#N)C12C(=O)N(CN1CCOCC1)c1ccccc12 (stereo unspecified),2,-48,-3,-4,11,21,-6,-12,2
O=c1c(C=NCCN2CCNCC2)c(O)n(C2CCCCC2)c(=O)n1C1CCCCC1,2,-31,-2,1,2,18,6,2,16
CCCN1CCC[C@@H]2Cc3nc(N)ncc3C[C@H]21,/,/,5,/,3,-10,-2,0,-11
CN(C)[C@@H]1C(=O)C(C(N)=O)=C(O)[C@@]2(O)C(=O)C3=C(O)c4c(O)cccc4[C@@](C)(O)C3[C@H](O)C12 (stereo partly specified),/,/,-1,/,-82*,25,106*,-1,4
CN1[C@@H]2CC[C@H]1CC(OC(=O)C1C=Nc3ccccc31)C2 (stereo partly specified),-6,-20,-2,-2,12,-11,-1,-6,-10
CN1CC=C2C(C#N)=C(N)C(C#N)(C#N)C(c3ccncc3)C2C1 (stereo unspecified),0,-16,-9,0,11,0,-4,5,17
O=C(O)CC1OCC=C2CN3CCC45C6=CC(=O)C(=O)C([N+](=O)[O-])=C6NC4C1C2CC35 (stereo unspecified),-9,2,-9,35*,11,-6,3,-4,-7
CCCN(CC#CCO)CCC,4,0,8,4,29,6,-3,1,14
CCCN1CCc2cccc3c2[C@H]1Cc1ccc(O)c(O)c1-3,/,/,1,/,18,13,4,44,?
CCN1C[C@]2(C)CC[C@H](OC)[C@]34C2[C@H](OC(C)=O)[C@@]2(OCO[C@@]25C[C@H](OC)[C@H]2C[C@]3(O)C5[C@H]2OC)[C@@H]14,-4,-18,0,1,15,2,-6,5,34
COC(=O)C1=CCCN(C)C1,3,-5,-3,-5,3,12,-5,2,0
NCC(CC(=O)O)c1ccc(Cl)cc1 (stereo unspecified),4,-12,3,2,14,-4,-3,1,-7
CCCc1nc2ccccc2c(=O)n1-c1ccccc1OC,2,-43,1,0,14,9,-2,12,25
C[N+]1(C)CCOC(O)(c2ccc(-c3ccc(C4(O)C[N+](C)(C)CCO4)cc3)cc2)C1 (stereo unspecified),3,-10,-6,-2,12,-3,1,3,-6
CC1(C)CC(=O)C(C=NCCN2CCN(C(=O)Cc3ccc(F)cc3)CC2)=C(O)C1,0,-27,6,3,22,0,-1,-4,4
C[C@]12CCC3=C4CCC(=O)C=C4CC[C@H]3C1CC[C@@H]2O (stereo partly specified),0,-26,-5,3,9,17,1,-1,11
CCCCNC(=O)Nc1ccc(C(O)(C(=O)OC)C(F)(F)F)cc1 (stereo unspecified),-1,-2,8,-1,18,-28,4,-2,10
COc1ccc2[nH]cc(CCN(C)C)c2c1,2,-24,1,0,2,-8,-4,-1,-16
C=CCn1c(O)c(C=Nc2ccc(N(CC)CC)cc2)c(=O)[nH]c1=O,-6,-5,-7,4,25,8,10,-7,0
CCCC[N+]1(C)C2CC(OC(=O)C(CO)c3ccccc3)CC1C1OC12 (stereo unspecified),/,/,2,/,3,-2,-4,2,-15
COc1ccc(Cn2c(O)c(C=NCCN3CCOCC3)c(=O)[nH]c2=O)cc1,-5,-17,14,-2,24,17,0,-4,-11

# At a glance, some entries already given.
SMILES,IEC-6 cytotox,KLF5 inhibitor,Platelet DG rel,HSP90 refold inh,AI-2 QS modul,aSyn 5UTR inh,SKKanGAS inh,HSF1 inhib,HSF1 activator
O=c1[nH]c(=O)n(CCc2ccccc2)c(O)c1C=NCCN1CCNCC1,0,-21,-3,-2,42,1,-2,-3,2
COc1ccccc1N1CCNCC1,/,/,-6,/,-2,-44,0,-5,-1
C[N+](C)(C)CC#CCOC(=O)Nc1cccc(Cl)c1,/,/,-2,/,1,2,-4,2,-13

# New compounds follow
SMILES,IEC-6 cytotox,KLF5 inhibitor,Platelet DG rel,HSP90 refold inh,AI-2 QS modul,aSyn 5UTR inh,SKKanGAS inh,HSF1 inhib,HSF1 activator
CCCCCCn1c(O)c(C=NCCN2CCCCC2)c(=O)[nH]c1=O,-1,-29,-1,-2,10,-10,9,7,13
COc1ccc(C2SCC(=O)Nc3c2c(=O)[nH]n3C2CCCCC2)cc1 (stereo unspecified),-4,-26,2,0,43,1,5,6,-2
COC(=O)N1CCN(C(=O)Cc2ccc(Cl)c(Cl)c2)C(CN2CCCC2)C1 (stereo unspecified),6,-23,3,1,11,-4,1,1,-10
CCC(=NCCN1CCCCC1)c1c(O)n(C)c(=O)n(C)c1=O,0,-32,-1,-4,12,-6,1,-5,-5
COc1ccc2c(c1)C13CCCC[C@@H]1C(C2)N(C)CC3 (stereo partly specified),/,/,0,/,-1,-3,-3,4,4
CCOC(=O)C1=C(C)OC(N)=C(C(=O)OCC)[C@@]12C(=O)N(CC(N)=O)c1ccccc12,1,-24,-5,-2,1,4,-3,-1,-13
C[N+](C)(C)CC#CCN1CCCC1=O,/,/,-1,/,2,5,-6,1,-5
C[C@]12CCC(=O)C=C1CC[C@@H]1[C@@H]2C(=O)C[C@]2(C)C(=O)CC[C@@H]12,4,8,-2,5,11,-13,-3,0,-1
CNCCc1c[nH]c2ccc(O)cc12,/,/,8,/,2,3,-2,-1,-12
CCN(CCCl)Cc1ccccc1Br,/,/,7,/,2,10,-2,-2,-9
OC(c1ccccc1)(c1ccccc1)C1CCNCC1,1,-16,1,6,22,0,0,-1,-11
C=CCOC(=O)C1=C(C)OC(N)=C(C#N)[C@@]12C(=O)N(CC(N)=O)c1ccccc12,0,-22,/,5,-3,18,-3,-8,5
O=c1[nH]c(=O)n(-c2cccc3ccccc23)c(O)c1C=NCCCn1ccnc1,-10,-42,4,2,5,-15,-3,-7,-3
CCN(CC)CCN=Cc1c(O)n(CCc2ccccc2)c(=O)[nH]c1=O,-1,-14,-14,4,22,-16,-6,-2,-16
CC(C)(O)[C@@H]1[C@H]2OC(=O)[C@@H]1[C@]1(O)C[C@H]3O[C@]34C(=O)O[C@H]2[C@]14C (tested in a mixture with another compound),/,/,-2,/,13,-34,4,-5,-2
CN(C)CCc1nn[nH]n1,0,0,12,4,23,4,-4,0,-7
CN1C[C@H](CNC(=O)OCc2ccccc2)C[C@@H]2c3cccc4c3c(cn4C)C[C@H]21,4,-9,3,5,14,-13,4,27,31

# Complete entries, quoted from the list. Values in the order: IEC-6 cytotox	KLF5 inhibitor	Platelet DG rel	HSP90 refold inh	AI-2 QS modul	aSyn 5UTR inh	SKKanGAS inh	HSF1 inhib	HSF1 activator
# Listed for C=CCOC(=O)C1=C(C)OC(N)=C(C#N)[C@@]12C(=O)N(CC(N)=O)c1ccccc12 → 0	-22	/	5	-3	18	-3	-8	5
# Listed for CN1C[C@H](CNC(=O)OCc2ccccc2)C[C@@H]2c3cccc4c3c(cn4C)C[C@H]21 → 4	-9	3	5	14	-13	4	27	31
# Listed for CCN(CCCl)Cc1ccccc1Br → /	/	7	/	2	10	-2	-2	-9
# Listed for COc1ccc2c(c1)C13CCCC[C@@H]1C(C2)N(C)CC3 (stereo partly specified) → /	/	0	/	-1	-3	-3	4	4

# The list is partial; count on the stated rates, not on these rows.
